D2 potentiator: positive allosteric modulators of human D2 dopamine receptor; DiscoveRx D2 beta-arrestin cells, luminescence, 90 min; 100% = 57 uM dopamine signal; potentiation, % (test concentration not listed); 360,000 tested, 0.23% active; AID 624464; active = potentiation of 50% or more; inconclusive = 30% to 50%; inactive = 30% or less;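 also: compound concentration not given in the record; tested on top of an EC20 dose of dopamine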
Target sequence (P14416 whole entry, looked up): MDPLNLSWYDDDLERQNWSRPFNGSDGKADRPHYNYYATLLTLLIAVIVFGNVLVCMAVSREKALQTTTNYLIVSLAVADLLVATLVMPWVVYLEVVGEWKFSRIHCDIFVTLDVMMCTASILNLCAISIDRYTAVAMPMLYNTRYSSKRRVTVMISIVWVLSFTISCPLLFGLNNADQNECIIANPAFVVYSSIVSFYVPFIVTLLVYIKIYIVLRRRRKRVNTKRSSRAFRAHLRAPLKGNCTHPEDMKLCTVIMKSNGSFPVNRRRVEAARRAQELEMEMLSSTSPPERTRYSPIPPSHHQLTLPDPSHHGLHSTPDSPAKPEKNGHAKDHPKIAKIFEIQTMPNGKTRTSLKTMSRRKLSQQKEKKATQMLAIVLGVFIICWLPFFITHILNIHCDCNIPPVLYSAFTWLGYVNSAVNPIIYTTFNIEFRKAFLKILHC
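D2 cells co-treated with compound plus 50 nM dopamine (EC20) for 90 min at 37 deg C to detect potentiation. Beta-arrestin recruitment was read as enzyme-fragment luminescence after 1 h at ambient temperature. Full response was set by 57 uM dopamine.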
Six1-Eya2 inh: Six1/Eya2 interaction inhibition; AlphaScreen GST-Six1/His-Eya2 binding, biochemical; hits give low values; control for the full effect not named in the record; Q15475+O00167; AID 651725; activity change, % (concentration not given with the values); 360,000 tested, 0.56% active; in the data active = activity change below about -65%; inconclusive = about -30% to -65%; inactive = above about -30%; also: % is scaled to controls: 0 for no effect and ±100 for the full control effect
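AlphaScreen luminescence read after one hour at 37 °C in darkness. Pin-transferred compounds met GST-Six1 and His-Eya2 protein (5X stock 250 nM/500 nM) plus glutathione donor and Ni-chelate acceptor beads (5X, 50 ug/mL).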
TRPML1 agonist: human mucolipin-1 channel agonism. Q9GZU1. activation, % (no concentration beside the values). 410,000 tested, 0.12% active. AID 624414. TRPML1-expressing cells, Ca2+ dye fluorescence, FDSS; host cell line not named in the record; reference of the full effect not given here; in the data active = activation above about 50%; inconclusive = about 30% to 50%; inactive = below about 30%; also: 0% is about no effect; the text of the record puts the active cut at 80%
Target sequence (Q9GZU1 whole entry, looked up): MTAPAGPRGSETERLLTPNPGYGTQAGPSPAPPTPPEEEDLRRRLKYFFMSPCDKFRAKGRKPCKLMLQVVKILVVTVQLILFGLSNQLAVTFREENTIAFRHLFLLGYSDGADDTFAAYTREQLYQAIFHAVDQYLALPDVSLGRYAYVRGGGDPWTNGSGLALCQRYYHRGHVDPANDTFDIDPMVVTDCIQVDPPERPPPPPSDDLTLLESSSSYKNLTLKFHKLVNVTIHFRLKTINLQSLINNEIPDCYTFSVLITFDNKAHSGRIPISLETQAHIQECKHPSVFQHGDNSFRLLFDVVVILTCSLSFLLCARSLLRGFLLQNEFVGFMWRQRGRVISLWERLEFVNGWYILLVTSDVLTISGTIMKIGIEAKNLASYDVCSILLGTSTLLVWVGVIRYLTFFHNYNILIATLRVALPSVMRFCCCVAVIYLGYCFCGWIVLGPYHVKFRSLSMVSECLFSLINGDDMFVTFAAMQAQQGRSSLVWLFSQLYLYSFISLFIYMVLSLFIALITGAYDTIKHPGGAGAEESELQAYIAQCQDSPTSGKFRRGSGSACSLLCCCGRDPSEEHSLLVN
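Kinetic FDSS Ca2+ read in Tet-induced TRPML1-DL cells (ABD Ca8 dye plus quencher, 45-90 min RT loading): baseline, then compound, then 110 s agonist window; EC80 agonist 54-4 at 4uM final added afterwards for a 110 s antagonist window.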
CtBP-E1A inh: inhibitors of CtBP/E1A interaction; 340,000 tested, 0.49% active; activity change, % (no concentration beside the values); AID 651724; AlphaScreen GST-E1A/His-CtBP binding, 1536-well; hits give low values; control for the full effect not named in the record; in the data active means activity change below about -65%; inconclusive means about -30% to -65%; inactive means above about -30%; also: % is scaled to controls: 0 for no effect and ±100 for the full control effect; compound concentration not given in the record
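GST-E1A and His-tagged CtBP (125 nM each as 5X stock) were preincubated with pin-transferred compound for 2 h at 37 °C in the dark, then glutathione donor and nickel acceptor beads were added for 1 h before AlphaScreen reading.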
PINK1 modulator: changes PINK1 expression | PINK1 immunofluorescence, high-content cytometry, 24 h | 410,000 tested, 0.2% active | Potency, µM (series often up to 76.6 µM), for inactives: at the highest dose activation (PINK1 increase), most hits filed as activators; active = well fitted activation curve with a large enough effect; inconclusive = small, poorly fitted or top-dose-only effect; inactive = flat fitted curve, though single readings scatter; cell line not stated here;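 also: potency is read from the fitted curve at half-maximal effect; % of control where 0% means no effect; nearly all actives have a fitted effect of over 65% in size; a mitochondrial uncoupler was the plate control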
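Readout is PINK1 immunofluorescence, quantified alongside mitochondrial, cell and nuclear markers by laser-scanning microplate cytometry. Cells from a stable line were exposed to compound titrations (5 concentrations) for 24 hours, with CCCP controls.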
D2 agonist: human D2 receptor agonism in beta-arrestin assay. DiscoveRx PathHunter D2 beta-arrestin, luminescence, 90 min; 100% = 57 uM dopamine signal. activation, % (concentration not given with the values). 360,000 tested, 0.084% active; in the data active = activation above about 40%; inconclusive = about 15% to 40%; inactive = below about 15%; also: compound concentration not given in the record; the text of the record calls up to 30% inactive
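DiscoveRx PathHunter D2 beta-arrestin cells (2,100/well) attached overnight, then compound-stimulated 90 min at 37 C in HBSS/10 mM HEPES/0.1% Tween-20 buffer; beta-galactosidase complementation read by luminescence after 1 h at ambient temperature. Dopamine 57 uM final (EC100) as control.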
* hit, by the source's call; [ ] = dose if it differs, or a comment.

The first two compounds, ahead of the listing:
For CC1(C)Cc2ccccc2C(=NCCCC(=O)O)N1 the results were D2 potentiator 5.1, Six1-Eya2 inh 6.1, TRPML1 agonist 0.3, CtBP-E1A inh 1.8, PINK1 modulator 3.4%[38.3 µM] and D2 agonist -0.1.
CN(CC(=O)Nc1ccccc1Cl)C(=O)COC(=O)c1ccc(Cl)cc1[N+](=O)[O-] was read as D2 potentiator inconclusive, Six1-Eya2 inh -5.2, TRPML1 agonist 0.4, CtBP-E1A inh -5.2, PINK1 modulator -0.8% and D2 agonist 3.7.

This part in full, from the start:
For CC1(C)Cc2ccccc2C(=NCCCC(=O)O)N1 the results were D2 potentiator 5.1, Six1-Eya2 inh 6.1, TRPML1 agonist 0.3, CtBP-E1A inh 1.8, PINK1 modulator 3.4%[38.3 µM] and D2 agonist -0.1.
CN(CC(=O)Nc1ccccc1Cl)C(=O)COC(=O)c1ccc(Cl)cc1[N+](=O)[O-] was read as D2 potentiator inconclusive, Six1-Eya2 inh -5.2, TRPML1 agonist 0.4, CtBP-E1A inh -5.2, PINK1 modulator -0.8% and D2 agonist 3.7.
N#C/C(=C\c1ccc([N+](=O)[O-])cc1)c1nc(C2CC2)cs1 was read as D2 potentiator inconclusive, Six1-Eya2 inh -11.5, TRPML1 agonist 1.2, CtBP-E1A inh 10.9, PINK1 modulator 22.2% and D2 agonist 7.9.
Screening Cc1c(C(=O)Nc2nonc2-c2ccc(F)cc2)oc2ccc(F)cc12 returned D2 potentiator 1.1, Six1-Eya2 inh -5.2, TRPML1 agonist 1.3, CtBP-E1A inh 2.7, PINK1 modulator 28.2µM* and D2 agonist -2.0.
`CCCc1nc2c(c(=O)c3ccccc3n2C)c(=O)n1-c1ccc(F)cc1` gave D2 potentiator -8.4, Six1-Eya2 inh 5.6, TRPML1 agonist 3.9, CtBP-E1A inh -5.0, PINK1 modulator 0.4% and D2 agonist -1.6.
For COC(=O)c1ccccc1NC(=O)C1CCN(S(=O)(=O)c2cc(C)ccc2OC)CC1 the results were D2 potentiator -0.2, Six1-Eya2 inh 2.3, TRPML1 agonist 3.2, CtBP-E1A inh -5.8, PINK1 modulator -0.3% and D2 agonist -8.8.
CC(=O)Oc1ccccc1/C=C/c1ccc2ccccc2[n+]1C was read as D2 potentiator -29.4, Six1-Eya2 inh -0.9, TRPML1 agonist -0.3, PINK1 modulator 3.1% and D2 agonist -5.3.
Screening CCOc1ccc(NC(=O)COc2ccc(C(=O)NCc3cccnc3)cc2OC)cc1 returned D2 potentiator -14.8, Six1-Eya2 inh 1.9, TRPML1 agonist 0.9, CtBP-E1A inh 9.2, PINK1 modulator 0.2% and D2 agonist 3.3.
For Cc1ccc(/C=C2\SC(=S)N(CCC(=O)NNS(=O)(=O)c3ccc(C)cc3)C2=O)cc1 the results were D2 potentiator -4.6, Six1-Eya2 inh 7.7, TRPML1 agonist 2.0, CtBP-E1A inh 6.4, PINK1 modulator 11.3% and D2 agonist 2.0.
COc1ccc(-n2cc(-c3ccc(OC)c(OC)c3)[nH]c2=S)cc1 was read as D2 potentiator -16.6, Six1-Eya2 inh -10.4, TRPML1 agonist -0.2, CtBP-E1A inh -7.7, PINK1 modulator 0.9% and D2 agonist -1.6.
Screening CCC(C)(C)n1nnnc1C(C(C)C)N1CCN(C(=O)c2ccco2)CC1 (stereo unspecified) returned D2 potentiator -0.7, Six1-Eya2 inh -3.0, TRPML1 agonist -0.3, CtBP-E1A inh -4.3, PINK1 modulator -2.0% and D2 agonist 1.0.
CCN(C[C@H]1N[C@@](C)(C(=O)OC)[C@H]2C(=O)N(Cc3ccccc3)C(=O)[C@@H]12)C(=O)c1ccc(F)cc1 was read as D2 potentiator -3.9, Six1-Eya2 inh 4.0, TRPML1 agonist 1.6, CtBP-E1A inh 4.1, PINK1 modulator -0.4% and D2 agonist 3.0.
For Cc1c(NC(=O)c2ccccc2NC(=O)COc2ccccc2)cccc1C(=O)O the results were D2 potentiator -2.0, Six1-Eya2 inh -7.0, TRPML1 agonist 0.3, CtBP-E1A inh 4.7, PINK1 modulator -1.2% and D2 agonist -0.1.
Cc1ccc(-c2noc(CCC(=O)Nc3ccc(C)cn3)n2)cc1 was read as D2 potentiator -5.4, Six1-Eya2 inh -1.5, TRPML1 agonist 0.0, CtBP-E1A inh 3.2, PINK1 modulator 13.1% and D2 agonist -2.6.
Screening CCCN(CCC)c1nc2ccccc2nc1C(C#N)C(=O)OC(C)COC (stereo unspecified) returned D2 potentiator -18.2, Six1-Eya2 inh 0.2, TRPML1 agonist 2.6, CtBP-E1A inh 5.6, PINK1 modulator 7.8% and D2 agonist 0.0.
O=C(O)COc1ccccc1/C=N/NC(=O)CSc1nc2ccccc2n1Cc1ccccc1 was read as D2 potentiator -4.4, Six1-Eya2 inh -13.1, TRPML1 agonist 0.9, CtBP-E1A inh -2.1, PINK1 modulator 1.5% and D2 agonist -7.1.
For CC(C)CCN(C(=O)C1CSC2(C)CCC(=O)N12)c1c(N)n(Cc2ccccc2)c(=O)[nH]c1=O (stereo unspecified) the results were D2 potentiator 3.1, Six1-Eya2 inh 6.4, TRPML1 agonist 1.6, CtBP-E1A inh -0.3, PINK1 modulator -2.7% and D2 agonist -4.6.
`O=C(C1CC1)N1CCc2cc(S(=O)(=O)NCC3COc4ccccc4O3)ccc21` (stereo unspecified) gave D2 potentiator 17.5, Six1-Eya2 inh -5.1, TRPML1 agonist 4.9, CtBP-E1A inh 2.4, PINK1 modulator -1.3% and D2 agonist -1.8.
For Cc1c(Nc2ccc3nonc3c2[N+](=O)[O-])c(=O)n(-c2ccccc2)n1C the results were D2 potentiator -5.2, Six1-Eya2 inh -6.7, TRPML1 agonist 0.4, CtBP-E1A inh 19.8, PINK1 modulator 0.2% and D2 agonist 3.7.
Screening Cc1cccc(NC(=O)NC2CCCCCCC2)c1 returned D2 potentiator -6.9, Six1-Eya2 inh 5.5, TRPML1 agonist -0.3, CtBP-E1A inh 4.3, PINK1 modulator 1.8% and D2 agonist -0.3.
CC(NC(=O)Cn1c(=O)[nH]c2ccsc2c1=O)C12CC3CC(CC(C3)C1)C2 (stereo unspecified) was read as D2 potentiator 11.9, Six1-Eya2 inh 20.5, TRPML1 agonist 1.2, CtBP-E1A inh 2.1, PINK1 modulator 0.9% and D2 agonist -1.3.
Cc1n[nH]c(C)c1S(=O)(=O)N1CCCC(C(=O)NC2CCCc3ccccc32)C1 (stereo unspecified) was read as D2 potentiator 1.5, Six1-Eya2 inh -8.5, TRPML1 agonist 0.1, CtBP-E1A inh -0.2, PINK1 modulator 1.3% and D2 agonist -1.7.
Screening COc1ccc2nc(-c3ccc(N)cc3)[nH]c2c1 returned D2 potentiator 10.4, Six1-Eya2 inh -6.8, TRPML1 agonist 3.0, CtBP-E1A inh -2.0, PINK1 modulator -1.3% and D2 agonist -0.7.
`COc1ccc(CN2C(=O)C(C)Nc3ncnc(N4CCN(c5ccccn5)CC4)c32)cc1` (stereo unspecified) gave D2 potentiator -46.5, Six1-Eya2 inh -5.3, TRPML1 agonist -0.1, CtBP-E1A inh -0.5, PINK1 modulator 7.8% and D2 agonist -17.2.
COc1ccc(N(C(=O)c2ccco2)C(C(=O)NC2CCCCC2)c2cccs2)cc1OC (stereo unspecified) was read as D2 potentiator -12.6, Six1-Eya2 inh -1.6, TRPML1 agonist 2.1, CtBP-E1A inh 5.7, PINK1 modulator -1.1% and D2 agonist -4.7.
For O=c1[nH]cc(S(=O)(=O)N2CCN(c3cccc(C(F)(F)F)c3)CC2)c(=O)[nH]1 the results were D2 potentiator -0.2, Six1-Eya2 inh -0.2, TRPML1 agonist -0.7, CtBP-E1A inh 3.1, PINK1 modulator 3.9% and D2 agonist 2.0.
CC(=O)C1=C(O)C(=O)N(c2ccc(O)cc2)C1c1ccccc1F (stereo unspecified) was read as D2 potentiator -2.7, Six1-Eya2 inh 3.1, TRPML1 agonist 0.5, CtBP-E1A inh 3.0, PINK1 modulator -2.2% and D2 agonist 0.7.
Cc1cccc(C)c1OCc1n[nH]c(=S)n1N was read as D2 potentiator -20.8, Six1-Eya2 inh 5.9, TRPML1 agonist -0.3, PINK1 modulator -1.0% and D2 agonist 14.4.
For COc1ccc(OC)c(S(=O)(=O)N2CCC(NC(=O)c3ccccc3)CC2)c1 the results were D2 potentiator -10.3, Six1-Eya2 inh 4.3, TRPML1 agonist 1.6, PINK1 modulator 1.0% and D2 agonist 2.3.
For CCc1nc(Nc2ccc(F)cc2)c2oc3ccccc3c2n1 the results were D2 potentiator 5.5, Six1-Eya2 inh 4.7, TRPML1 agonist 3.2, CtBP-E1A inh 1.4, PINK1 modulator 2.6% and D2 agonist -1.0.
Cc1ccc(NS(=O)(=O)c2ccc(CCC(=O)N3CCOCC3)cc2)cc1 was read as D2 potentiator -15.2, Six1-Eya2 inh 10.2, TRPML1 agonist 0.7, CtBP-E1A inh 0.0, PINK1 modulator -2.1% and D2 agonist -3.1.
Cc1[nH]c2ccc(OCc3ccccc3)cc2c1CCN1C(=O)OC(C)(C)C1(C)O (stereo unspecified) was read as D2 potentiator -6.5, Six1-Eya2 inh 1.6, TRPML1 agonist 0.0, CtBP-E1A inh -8.6, PINK1 modulator 2.0% and D2 agonist -6.6.
Screening COc1ccc(C2/C(=C(/O)c3ccc4c(c3)CC(C)O4)C(=O)C(=O)N2CCN2CCOCC2)cc1OC (stereo unspecified) returned D2 potentiator -11.6, Six1-Eya2 inh -9.6, TRPML1 agonist -0.2, CtBP-E1A inh -5.6, PINK1 modulator 0.1% and D2 agonist -1.1.
For Cc1cccn2c(=O)c3cc(C#N)c(=O)n(Cc4cccnc4)c3nc12 the results were D2 potentiator -15.7, Six1-Eya2 inh 5.9, TRPML1 agonist -0.1, CtBP-E1A inh -7.5, PINK1 modulator -3.4% and D2 agonist -0.3.
`O=C(COC(=O)/C=C/c1ccc([N+](=O)[O-])cc1)Nc1ccc(F)cc1` gave D2 potentiator -2.5, Six1-Eya2 inh -2.6, TRPML1 agonist -0.5, PINK1 modulator 2.4% and D2 agonist -1.0.
`COc1cccc(OCCNCc2ccccc2)c1` gave D2 potentiator -12.8, Six1-Eya2 inh 1.4, TRPML1 agonist -1.3, CtBP-E1A inh 2.6, PINK1 modulator -1.7% and D2 agonist -1.1.
Screening CC(C)c1c(C(=O)N/N=C/c2ccc(-c3ccccc3)cc2)nnn1-c1nonc1N returned D2 potentiator -4.6, Six1-Eya2 inh 5.7, TRPML1 agonist 2.8, PINK1 modulator -0.8% and D2 agonist 2.5.
Screening COc1cc(CCC(=O)NC2(C)CCS(=O)(=O)C2)cc(OC)c1OC (stereo unspecified) returned D2 potentiator -3.8, Six1-Eya2 inh 5.6, TRPML1 agonist -0.4, CtBP-E1A inh 4.0, PINK1 modulator 0.7% and D2 agonist 8.5.

Quoted from above (2 entries):
CC(NC(=O)Cn1c(=O)[nH]c2ccsc2c1=O)C12CC3CC(CC(C3)C1)C2 (stereo unspecified) was read as D2 potentiator 11.9, Six1-Eya2 inh 20.5, TRPML1 agonist 1.2, CtBP-E1A inh 2.1, PINK1 modulator 0.9% and D2 agonist -1.3.
Cc1n[nH]c(C)c1S(=O)(=O)N1CCCC(C(=O)NC2CCCc3ccccc32)C1 (stereo unspecified) was read as D2 potentiator 1.5, Six1-Eya2 inh -8.5, TRPML1 agonist 0.1, CtBP-E1A inh -0.2, PINK1 modulator 1.3% and D2 agonist -1.7.
